# PMP22 txn: PMP22 gene transcription modulation. S16 Pmp22-F2sN Schwann cells (luciferase reporters placed in the Pmp22 gene), FLuc/NLuc coincidence luminescence, 24 h. Potency, µM (titrated, usually from 57.5 µM), without a hit: top-dose activity change, negative = inhibition, most hits filed as inhibitors. 2% of 43,000 active; active = clear falling dose curves in both reporters; inconclusive = both reporters move, but less clearly or upward; inactive = either reporter flat; the % is the NLuc reporter signal; note: % is set by controls: 0 for no effect and ±100 for the full control effect; some results filed as inactive show a strong effect at the top dose
#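 Luminescent read-out of sequential FLuc and NLuc signals from a reporter embedded in the Pmp22 3' UTR of S16 Schwann cells, taken after 24 h compound exposure at 37C; compounds reducing both signals score as inhibitors of expression.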
# HTT prom inh: inhibits huntingtin promoter activity. HEK293 HTT promoter firefly luciferase reporter (activity 0% = vehicle and -100% = no light), 24 h. Potency, µM (doses to about 57.5 µM), inactives show at the top dose activity change, negative = inhibition, hits mostly inhibitors. 0.93% of 48,000 active. AID 1508623; active = well fitted inhibition curve with a large enough effect; inconclusive = small, poorly fitted or top-dose-only effect; inactive = no such curve, though single readings can be large or run the other way; note: nearly all actives have a fitted effect of over 50% in size
#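 Luminescence was read after Dual-Glo reagent and a 10 min room-temperature incubation. Values were normalized to vehicle (0% activity) and zero RLU (-100% activity). Reporter HEK293 cells had been exposed to compounds (up to 57.5 uM final) for 24 h.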
# Numbers without * were called inactive; ? = inconclusive; nt = no result given; & = joins results of further samples; [ ] = another dose, or the depositor's remark. Potency is the fitted concentration of half-maximal effect. This is a subset; count on the stated rates, not on these rows.
SMILES,PMP22 txn,HTT prom inh
CC1(c2ccc(Cl)cc2)CC(C)(C)N(C(=O)c2ccccc2)c2ccccc21 (configuration not stated),?,25µM*
COc1ccc2ccc(=O)oc2c1CC=C(C)C,nt,-6%
CCOCCc1nn2c(=O)cc(COC(=O)CNC(=O)c3ccc(C(C)(C)C)cc3)nc2s1,?,-22%
O=C(CCCN1CCC(O)(c2ccc(Br)cc2)CC1)c1ccc(F)cc1,nt,1%
COc1cc(NC(=O)Cn2c(SCc3ccc(F)cc3)nc3cccnc32)cc(OC)c1,2%,-9%
Cc1cc2c(n1-c1ccc(C(=O)NCC(C)c3ccccc3)cc1)CCCC2 (configuration not stated),?,8%
COc1ccc(N2CC(NC(=O)COc3ccccc3C)CC2=O)cc1OC (configuration not stated),-39%,-3%
N#C/C(=C\c1ccc(-c2cc(Cl)ccc2Cl)o1)C(=O)Nc1ccccc1C(=O)O,11%,16%
COc1ccccc1CNC(=O)C1CCCN(C(=O)c2cnn(-c3ccc(F)cc3)c2-n2cccc2)C1 (configuration not stated),-27%,-30%
CCOC(=O)c1cnc2c(C)c(Cl)ccc2c1NCCc1ccccc1,-4%,-14%

# Some values from the results shown:
# `CCOCCc1nn2c(=O)cc(COC(=O)CNC(=O)c3ccc(C(C)(C)C)cc3)nc2s1` in HTT prom inh is listed with -22%
# `COc1ccc(N2CC(NC(=O)COc3ccccc3C)CC2=O)cc1OC` (configuration not stated) in HTT prom inh is listed with -3%
# `COc1ccccc1CNC(=O)C1CCCN(C(=O)c2cnn(-c3ccc(F)cc3)c2-n2cccc2)C1` (configuration not stated) in PMP22 txn is listed with -27%

# The list continues:
SMILES,PMP22 txn,HTT prom inh
Cc1ccc(-c2c(C)n3c4c(=O)n(C)c(=O)n(C)c4nc3n2CCO)cc1,4.8µM*,2µM*
C=CC(=O)Nc1cccc(Nc2nc(NC3CCC(N(C)C)CC3)nc3c2ncn3C(C)C)c1 (configuration not stated),nt,-38%
Cc1ccc(CNC(=O)CSC2=Nc3ccccc3N=C(c3ccc(F)cc3)C2)cc1,-21%,-17%
CC(=O)c1ccc(N2CCN(c3ncnc4c3cnn4C)CC2)cc1,-41%,-20%
C=CCn1c(=O)c2cnc(Nc3ccc(N4CCN(C)CC4)cc3)nc2n1-c1cccc(C(C)(C)O)n1,nt,?
COC(=O)c1ccc(NC(=O)CCc2c(C)nc3c(c(C)nn3C(C)(C)C)c2C)cc1,?,?
CCC(C)NC(=O)CSc1nnc(-c2ccc(C)cc2)c(-c2ccc(C)cc2)n1 (configuration not stated),17%,-26%
COCCc1nn2c(=O)cc(COC(=O)C(c3ccccc3)c3ccccc3)nc2s1,-21%,-9%
Cc1cc(C)cc(N2C(=O)CS(=O)(=O)C23C(=O)N(C)c2ccccc23)c1 (configuration not stated),-19%,-10%
CCCCCCOc1ccc(C2C(=O)N(C3CCCCC3)CC(=O)N2CCCC)cc1 (configuration not stated),?,-16%
COc1ccc(C2CC(=O)c3cc(-c4nc(-c5ccc(C)cc5)cs4)c(=O)[nH]c3C2)cc1 (configuration not stated),-12%,-9%
COc1cc(C)ccc1OCCSc1nc2ccc(NC(=O)c3cccs3)cc2s1,?,?
COc1ccccc1NC(=O)Cn1c(=O)n(-c2cccc(Cl)c2)c(=O)c2c1c1cc(C)ccc1n2C,4%,-16%
CCOC(=O)N1CCN(Cc2nc3cc(NC(=O)c4ccccc4[N+](=O)[O-])ccc3n2C(C)C)CC1,11µM*,?
COc1nnc(-c2ccc(N3CCCCC3)c(NC(=O)c3ccccc3)c2)c2ccccc12,14µM*,?
O=[N+]([O-])c1cc(-c2nc(-c3ccccc3)no2)ccc1N1CCCC1,5%,?
COc1ccc(C(=O)c2c(N)c(C(=O)Nc3cccc(OC)c3)c3ccccn23)cc1,?,-13%
COc1cc(C(CC(=O)Nc2ncccc2C)N2Cc3ccccc3C2=O)cc(OC)c1OC (configuration not stated),-19%,-14%
Cc1ccc(C)c(NC2=C(c3ccc(C(F)(F)F)cc3)C(=O)c3ccccc32)c1,?,?
CCCCN(CC)CCNC(=O)CN1C(=O)COc2ccc(S(=O)(=O)N3CCCC3)cc21,-4%,-6%

# Part of the list above, with values under each structure:
# Sequence of screens: PMP22 txn | HTT prom inh
- COc1cc(C)ccc1OCCSc1nc2ccc(NC(=O)c3cccs3)cc2s1
    ? | ?
- COc1ccccc1NC(=O)Cn1c(=O)n(-c2cccc(Cl)c2)c(=O)c2c1c1cc(C)ccc1n2C
    4% | -16%
- CCOC(=O)N1CCN(Cc2nc3cc(NC(=O)c4ccccc4[N+](=O)[O-])ccc3n2C(C)C)CC1
    11µM* | ?
- COc1nnc(-c2ccc(N3CCCCC3)c(NC(=O)c3ccccc3)c2)c2ccccc12
    14µM* | ?
- O=[N+]([O-])c1cc(-c2nc(-c3ccccc3)no2)ccc1N1CCCC1
    5% | ?

# (listing goes on)
SMILES,PMP22 txn,HTT prom inh
COc1ccc(N2CCN(CCCNC(=O)Nc3ccccc3)CC2)cc1,-31%,-2%
CCOc1ccc2nc(N3CCC(C(=O)Nc4cc(C)ccc4C)CC3)sc2c1,3%,46%[activator]
O=C(CSc1nc2c([nH]c3ccccc32)c(=O)n1-c1ccc(Cl)cc1)N1CCc2ccccc21,7%,4%
Cc1cccc(Oc2nc3c(C)cccn3c(=O)c2/C=C(\C#N)c2nc3ccccc3s2)c1,?,6%
CCCSc1ncc(Cl)c(C(=O)Nc2sc3c(c2C(=O)NCCOC)CCCC3)n1,?,-8%
O=C(Nc1ccc(F)cc1)c1cccn1-c1nnc(N2CCCCC2)s1,-5%,1%
CCCCCNC(=O)CCn1c(=O)[nH]c2ccccc2c1=O,-12%,-13%
COc1cccc(NC(=O)Cn2c(=O)n(CCc3ccccc3)c(=O)c3c4c(sc32)CN(C(C)=O)CC4)c1,?,-22%
Cc1ccc2ncc(C(=O)NC(C)c3ccccc3)c(=O)n2c1 (configuration not stated),-13%,-6%
CCCNC(=O)Cn1ncc2c3ccccc3n(CCC)c2c1=O,0%,-13%
O=C(NCCCN1CCN(c2ccccc2)CC1)c1nnc(Cc2c(F)cccc2Cl)o1,?,-26%
Cc1ccc(OCC(=O)NCC2(N3CCOCC3)CCCCC2)cc1C,-17%,-29%
Cc1ccc(-n2ccnc(NCCc3ccccc3)c2=O)cc1C,-38%,12%
COc1ccc(C2CC(=O)Nc3c2c(C)nn3-c2nc(C)cc(C)n2)c(OC)c1OC (configuration not stated),0%,-6%
CC(C)NC(=O)Cn1c(=O)nc(-c2ccccc2F)c2cc(Cl)ccc21,-6%,-12%
OC1(c2ccccc2)CCNCC1,nt,-4%
COc1ccc(C(=O)Nc2ccc3oc(-c4cccc5c(Br)cccc45)nc3c2)cc1,6%,-1%
CCCS(=O)(=O)N1CC(=O)N(c2ccc(C)c(Cl)c2)C(C)(C(=O)NC2CCCCCC2)C1 (configuration not stated),-20%,-6%
COc1ccc(-c2nnc(SCC(=O)NC3CCCC3)nc2-c2ccc(OC)c(OC)c2)cc1OC,?,?
CCOC(=O)c1cnc2c(C)cc(C)cc2c1NCCc1ccc(OC)c(OC)c1,-10%,-4%
N#Cc1cccc(NC(=O)C2CCN(c3ncccn3)CC2)c1,1%,4%
CN(C)S(=O)(=O)N(CC(=O)NCCSc1ccccc1)c1ccccc1,15%,-14%
Cc1cccc(Nc2nc(N)nc(N)c2S(=O)(=O)c2ccccc2)c1,?,-15%
CC(C)CN(CCNC(=O)c1cn(C)c2ccc(S(=O)(=O)N3CCCC3)cc2c1=O)CC(C)C,-17%,-8%
COc1cc(-c2nnn(CC(=O)NCc3ccccc3)n2)cc(OC)c1OC,-11%,-5%
COc1ccc(C)cc1NC(=O)CSc1ncc2c(n1)-c1ccc(Cl)cc1N(Cc1ccccc1)S2(=O)=O,-5%,-24%
CCN1CCN(c2ncc3c(n2)CCN(Cc2cc(F)cc(F)c2)C3)CC1,?,-24%
Cc1cccc(N2CCN(CCCNc3ncnc4onc(-c5ccc(F)cc5)c34)CC2C)c1 (configuration not stated),?,-25%
CCOc1ccc(C2=CC(c3cccc(Br)c3)n3c(nc4ccccc43)N2)cc1Cl (configuration not stated),?,34%[activator]
COCc1c(C(C)C)nc(C(C)C)c(/C=C/[C@@H](O)C[C@@H](O)CC(=O)O)c1-c1ccc(F)cc1,nt,11%
CCC1CN(C(=O)Nc2cccc3c2CCCC3)c2ccccc2O1 (configuration not stated),?,-34%
CCOc1cc(OCC)cc(C(=O)Nc2cccc(-c3nc4ccccc4[nH]3)c2)c1,?,?
CC(C)(C)c1ccc(C(=O)NCC(c2cccnc2)N2CCc3ccccc3C2)cc1 (configuration not stated),?,?
CCCCc1nn2c(=O)cc(COC(=O)c3cccc(NC(=O)c4cccc(Cl)c4)c3)nc2s1,-17%,7%
CC1=C(C(=O)Nc2ccccc2)C(CC(C)C)n2nc(SCc3ccccc3C)nc2N1 (configuration not stated),-12%,4%
CCc1ccc(NC(=O)C2=CC(c3ccc4c(c3)OCO4)=NS(=O)(=O)N2C)cc1,?,?
CC(NC(=O)c1cccc(Nc2nc3ccccc3n3nnnc23)c1)c1ccccc1 (configuration not stated),11µM*,19%
COc1ccc(C)cc1NC(=O)CCS(=O)(=O)c1cc2c3c(c1)CCN3C(=O)CC2,23%,-6%
O=C1CN(C(=O)c2c(F)cccc2Cl)C(c2ccc(F)cc2)c2cc(Br)ccc2N1 (configuration not stated),30%,?
O=C(CCCCCn1c(=O)c2sccc2n(Cc2ccccc2Cl)c1=O)NCc1ccc2c(c1)OCO2,?,-3%
CCN(CC)C(=O)c1sc2c(c1C)c(=O)n(-c1ccc(OC)cc1OC)c(=O)n2CC(=O)Nc1ccccc1,-9%,-1%
CC(=O)c1cccc(NC(=O)CCn2nc(C)c(S(=O)(=O)N3CCCCC3)c2C)c1,-17%,-26%
COC(=O)CNC(=O)N1CCN(S(=O)(=O)c2ccc3c(ccn3C)c2)CC1,6%,-35%
CCN(CC)c1ccc2cc(-c3nc4sc5c(c4c(=O)[nH]3)CCC(C(C)(C)C)C5)c(=O)oc2c1 (configuration not stated),-9%,-21%
Cc1ccc(Cl)cc1N1CCN(C(=O)c2ccc(CS(=O)(=O)c3ccccc3C)o2)CC1,?,-32%
Cc1ccc(CNC(=O)CCCCCn2c(=O)c3sccc3n(CC(=O)Nc3ccc(C)c(F)c3)c2=O)cc1,?,-16%
CCN(CC)c1cc(C)c2cc(NC(=O)c3cccc(OC)c3)ccc2n1,?,-11%
Cc1cccc(-n2ncc(C(=O)N3CCN(c4ccc(Cl)cc4)CC3)c2C2CCN(C(=O)OC(C)(C)C)CC2)c1,?,4%
CCCCNc1nc2c(-c3cccc(C)c3)nnn2c2ccccc12,-32%,-14%
COc1ccc(Cl)cc1NC(=O)CN(c1cc(C)cc(C)c1)S(=O)(=O)c1c(C)n[nH]c1C,?,?

# Next part.
SMILES,PMP22 txn,HTT prom inh
CC(C)(C)OC(=O)N1CCC(c2c(C(=O)N3CCN(c4ncccn4)CC3)cnn2-c2ccccc2)CC1,-30%,6%
Cc1nn(C(C)(C)C)c(OC(=O)c2cccc(F)c2)c1Sc1ccccc1,?,?
CCc1ccc(NC(=O)Cn2c(=O)n(Cc3ccc(C)cc3)c(=O)c3cccnc32)cc1,2%,0%
COc1ccc(N2CCN(C(CNC(=O)c3cccc(OC)c3)c3cccnc3)CC2)cc1 (configuration not stated),-15%,?
COc1ccccc1NC(=O)C1=C(C)Nc2nc(SC)nn2C1c1ccccc1Cl (configuration not stated),?,25%
Cc1ccc(N2CCN(C(=O)c3cn(C)c4ccc(S(=O)(=O)N5CCCC5)cc4c3=O)CC2C)cc1 (configuration not stated),-3%,-5%
O=c1c(-c2ccc(O)cc2)coc2cc(O)cc(O)c12,nt,14%&39%
Cc1cc(-c2ccc(C)c(S(=O)(=O)NCc3cccs3)c2)on1,?,?
COc1ccc(/C=C\c2onc(C)c2S(=O)(=O)N2CCC(C(=O)Nc3cccc(OC)c3)CC2)cc1,-41%,?
CC(O)(P(=O)(O)O)P(=O)(O)O,nt,9%

# Compounds shown so far containing bromine, in the order listed:
SMILES,PMP22 txn,HTT prom inh
O=C(CCCN1CCC(O)(c2ccc(Br)cc2)CC1)c1ccc(F)cc1,nt,1%
COc1ccc(C(=O)Nc2ccc3oc(-c4cccc5c(Br)cccc45)nc3c2)cc1,6%,-1%
CCOc1ccc(C2=CC(c3cccc(Br)c3)n3c(nc4ccccc43)N2)cc1Cl (configuration not stated),?,34%[activator]
O=C1CN(C(=O)c2c(F)cccc2Cl)C(c2ccc(F)cc2)c2cc(Br)ccc2N1 (configuration not stated),30%,?

# Screening data (PubChem BioAssay)
